Screening data: PubChem, several laboratories
ugtP null kill: growth inhibition of S. aureus ugtP deletion strain | S. aureus RN4220 ugtP deletion, OD600 growth, 16 h; some inactives read as strong as hits | growth inhibition, % (concentration not given with the values) | hit rate 0.54% among 330,000 | AID 1259309;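 active = z-score under -3 and OD600 up to 0.15 on both plates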;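 note: plate controls were untreated wells for no effect and antibiotic for full effect; wells of about 80 µL received 100 nL stock; the first replicate is given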
Autofluor counter: flagged as autofluorescent in microsphere protease counterscreen; fluorescence intensity (concentration not given with the values); hit rate 3.1% among 360,000; compound autofluorescence counterscreen, microsphere flow cytometry; hits give high values;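 active = at least 3 SD above the mean of all compounds, about 16000 in these data; inconclusive = too few beads counted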;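 note: 100 nL of 1 mM stock went into each well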
BJeLR lethal: BJeLR cell viability loss | AID 1554 | hit rate 0.17% among 300,000 | BJeLR (HRASV12) viability, CellTiter-Glo ATP luminescence, 48 h; reference of the scale not given here | inhibition, % (concentration not given with the values);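 active = replicate mean above 50%; inconclusive = above 50% but judged a plate artefact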;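 note: 50 nL library stock added to about 25 µL; numbers are from one replicate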
RN4220 kill: S. aureus RN4220 growth inhibition; OD600, 16 h; inhibition, % (concentration not given with the values); AID 1259311; hit rate 0.33% among 330,000;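 active = z-score of -3 or lower and OD600 up to 0.18 on both plates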;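 note: plate controls were untreated cells for no effect and reference antibiotic for full effect; stock transfer was 100 nL into about 80 µL; one replicate is shown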
Mtb hypoxia rep: Mtb hypoxia fluorescent reporter inhibition. M. tuberculosis hypoxia-regulated fluorescent reporter, fluorescence. fluorescence inhibition, % (test concentration not listed). hit rate 0.1% among 300,000. AID 1159583;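 active = 35 to 45% if threefold the growth effect, above 45% if 1.5-fold the growth effect; inactive = the rest, general growth blockers included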;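 note: wells of about 50 µL received 100 nL stock; 0% = vehicle wells and 100% = reference inhibitor wells; whole bacteria with a GFP reporter of the hypoxia response; strong numbers were not always called active; many hits fall short of the cut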
PrP 5UTR inh: suppresses PrP 5' UTR mRNA reporter expression; inhibition, % (test concentration not listed); hit rate 0.35% among 340,000; cell-based PrP 5' UTR mRNA reporter, plate reader;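 active = every replicate at 50% or more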;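 note: 0 = median of the neutral control wells; tested in H4 reporter cells; numbers are from one replicate; inactives centre near -14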
Mtb hypoxia rep growth: further read-out of Mtb hypoxia rep, marked with its call; growth inhibition, %; measured here: M. tuberculosis growth (absorbance);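 0% = vehicle and 100% = reference antibiotic; read after six days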
* hit, by the source's call; u = inconclusive; x = no result given. No enrichment for hits; overall some 4% were active at least once.

Below each SMILES – ugtP null kill | Mtb hypoxia rep growth | Autofluor counter | BJeLR lethal | Mtb hypoxia rep | RN4220 kill | PrP 5UTR inh
1: CCOC(=O)C1C(c2ccc(Cl)cc2)NC(=S)NC1(O)C(F)(F)F (stereo not drawn)
    -1.0 | 8.1 | 4419 | -9.4 | 3.6 | -0.7 | -34.9
2: Nc1nc2sc3c(c2c(=O)s1)CCCC3
    37.6 | 12.2 | 9336 | -4.4 | 13.0 | 9.0 | -50.3
3: COc1cc(CN2CCCC(C(=O)c3ccc(SC)cc3)C2)cc(Cl)c1O (stereo not drawn)
    2.7 | 14.7 | 4276 | 3.9 | 8.5 | 0.9 | 6.6
4: NC(=O)COC(=O)CC(c1ccccc1)c1ccccc1
    5.0 | 11.2 | 4193 | -8.7 | 7.6 | 1.3 | -7.0
5: CN(C)c1ccc(S(=O)(=O)NCC(=O)OCC(=O)Nc2cccc(Cl)c2)cc1[N+](=O)[O-]
    17.4 | 1.0 | 8414 | -4.5 | 7.2 | -6.0 | -30.2
6: COc1ccc(-c2cc(C)no2)cc1S(=O)(=O)NCC(C)c1ccccc1 (stereo not drawn)
    2.7 | 1.5 | 5469 | 3.6 | -7.2 | -0.8 | -5.5
7: Cc1ccc(C(CC(N)=O)c2ccco2)cc1 (stereo not drawn)
    -1.5 | 6.8 | 9206 | 0.8 | 9.3 | 5.3 | -8.5
8: CCCCSCCCNC(=O)CCCN1C(=O)c2ccccc2Sc2ncccc21
    13.0 | -4.4 | 3394 | -5.6 | 5.8 | 3.3 | -10.7
9: COc1cc2c(cc1NC(=O)c1cccc(F)c1)CCCC2
    6.4 | 7.9 | 2583 | -9.1 | 11.2 | 0.0 | -20.8
10: O=C(COC(=O)Cc1ccc([N+](=O)[O-])cc1)NCc1ccc2c(c1)OCO2
    10.9 | 17.7 | 3720 | x | 11.8 | 0.4 | -17.9
11: CN(Cc1ccon1)C(=O)c1ccc2nc(Cc3cccc(Cl)c3)oc2c1
    -3.1 | 9.0 | 4433 | -1.2 | -3.4 | -0.8 | -0.5
12: CCC(Sc1nnc2c3ccccc3n(CC)c2n1)C(=O)Nc1sc2c(c1C#N)CCCC2 (stereo not drawn)
    1.7 | -1.9 | 5712 | -0.4 | 6.8 | 2.6 | -4.6
13: CCN(CC)c1ccc(/C=N/OCC(=O)Nc2cccc(C)c2)cc1
    x | x | 9723 | 3.5 | x | x | -7.3
14: CS(=O)(=O)N1N=C(c2cccs2)CC1c1ccco1 (stereo not drawn)
    3.3 | -2.6 | 5819 | -17.5 | 5.6 | -1.1 | -13.2
15: O=C(O)c1ccc(S(=O)(=O)c2ccccc2)s1
    9.0 | -0.8 | 3005 | x | 3.2 | 3.7 | -17.8
16: Cc1ccccc1NC(=O)c1cc(S(=O)(=O)c2ccccc2)ccc1Cl
    -6.9 | -1.8 | 3202 | -2.4 | -2.7 | 0.3 | -2.5
17: C/C(=N\NC(=O)CNC(=O)C1COc2ccccc2O1)c1ccco1 (stereo not drawn)
    x | x | 4088 | -7.1 | x | x | 3.6
18: C/C(=C\c1ccccc1)C(=O)NCCCn1ccnc1
    9.0 | 10.4 | 2259 | -0.5 | -0.1 | 3.4 | -10.0
19: CNC(=S)Nc1cccc(-c2cnc3ccccc3n2)c1
    -5.8 | 7.5 | 3782 | 1.7 | -2.6 | 0.1 | -29.2
20: COc1ccc(-n2nnnc2S(=O)(=O)Cc2ccc(C(=O)O)cc2)cc1
    95.3* | x | 17765* | 10.3 | x | 38.2 | -30.4
21: CCOC(=O)C1CCN(C(=O)CN2C(=O)c3ccccc3Sc3ncccc32)CC1
    3.2 | 0.1 | 5400 | -23.7 | 2.6 | 5.5 | -14.8
22: O=C(Cn1cc([N+](=O)[O-])cn1)N1N=C(C(F)F)CC1(O)C(F)F (stereo not drawn)
    0.1 | 4.5 | 22225* | -2.7 | -5.0 | 0.3 | -29.5
23: CC(C)(C)c1cccc(P(=O)(c2ccccc2)c2ccccc2)c1O
    3.9 | 9.4 | 4709 | 0.4 | 5.6 | 7.5 | -22.8
24: O=C1C2CC=CCC2C(=O)N1c1n[nH]c(-c2ccccc2)n1 (stereo not drawn)
    -0.3 | 3.9 | 3298 | 0.9 | 12.6 | 4.8 | 7.3
25: CCOC(=O)Cc1csc(NC(=O)c2c(-c3c(F)cccc3Cl)noc2C)n1
    10.7 | -12.9 | 21863* | 4.9 | -6.7 | 2.6 | -25.8
26: Cc1ccc(C(=O)N2CCN(c3ccc(N4CCOCC4)nn3)CC2)cc1C
    4.2 | 2.4 | u | -5.5 | 13.0 | 3.4 | -8.5
27: CCS(=O)(=O)Nc1ccc(C2=NN(C(=O)c3ccco3)C(c3ccc(Cl)o3)C2)cc1 (stereo not drawn)
    -21.1 | 5.7 | 2950 | x | 4.4 | 14.1 | -26.6
28: Cc1ccc(NC(=S)N(CCN(C)C)Cc2cccs2)c(C)c1
    2.8 | 4.2 | 3890 | 3.5 | 7.2 | 2.8 | -38.4
29: COc1ccc(NCc2n[nH]c(=O)c3ccccc23)cc1
    3.9 | x | 4148 | 5.5 | x | -0.7 | -35.4
30: CCN(C(=O)COC(=O)C1CC1C)c1c(N)n(Cc2ccccc2)c(=O)[nH]c1=O (stereo not drawn)
    5.2 | 6.4 | 5258 | x | 3.5 | 4.4 | -9.2

Brought forward from above: 4 entries, followed by the next part.
Below each SMILES – ugtP null kill | Mtb hypoxia rep growth | Autofluor counter | BJeLR lethal | Mtb hypoxia rep | RN4220 kill | PrP 5UTR inh
27: CCS(=O)(=O)Nc1ccc(C2=NN(C(=O)c3ccco3)C(c3ccc(Cl)o3)C2)cc1 (stereo not drawn)
    -21.1 | 5.7 | 2950 | x | 4.4 | 14.1 | -26.6
28: Cc1ccc(NC(=S)N(CCN(C)C)Cc2cccs2)c(C)c1
    2.8 | 4.2 | 3890 | 3.5 | 7.2 | 2.8 | -38.4
29: COc1ccc(NCc2n[nH]c(=O)c3ccccc23)cc1
    3.9 | x | 4148 | 5.5 | x | -0.7 | -35.4
30: CCN(C(=O)COC(=O)C1CC1C)c1c(N)n(Cc2ccccc2)c(=O)[nH]c1=O (stereo not drawn)
    5.2 | 6.4 | 5258 | x | 3.5 | 4.4 | -9.2
31: CCOc1nc2cnccc2n(CC(=O)Nc2c(C)cccc2CC)c1=O
    0.7 | -12.0 | 5769 | -9.9 | -10.7 | 1.2 | -4.5
32: C=CCOc1ccc(/C=N/NC(=O)CN2CCCCC2)cc1OC
    x | x | 3810 | 3.8 | x | x | -9.3
33: COc1cccc(C(=O)NCCS(=O)(=O)N(C)C2CCCCC2)c1
    x | x | 5181 | 18.7 | x | x | 4.8
34: COC(=O)[C@@H]1[C@@H](C)N(Cc2ccccc2)C(=O)N[C@H]1c1cccc(C(F)(F)F)c1
    x | x | 2816 | 3.8 | x | x | -8.9
35: CCCc1cc(N2CCC(C(N)=O)CC2)nc(-c2ccccc2)n1
    11.8 | 3.6 | 2026 | -12.4 | -0.5 | -1.8 | -12.1
36: Cc1ccc(C(=O)N2CCCCC2)cc1S(=O)(=O)N1CCCC1
    1.0 | 2.0 | 5531 | 3.5 | 13.4 | 1.5 | -21.1
37: COc1ccccc1C=NNS(=O)(=O)c1ccccc1
    -2.0 | 5.1 | x | x | 11.5 | 3.7 | x
38: CC(=O)c1ccc(S(=O)(=O)N2CCN(C(=O)CSC(=S)N3CCCC3)CC2)cc1
    3.8 | -1.5 | 7113 | 9.1 | -0.4 | 3.6 | -19.4
39: Cc1ccc(NC(=O)C2C(c3ccccc3)C=CC(c3ccccc3)C2C(=O)O)cc1 (stereo not drawn)
    28.5 | x | 2589 | 6.2 | x | -1.9 | -17.6
40: CCS(=O)(=O)Nc1cccc(C2=NN(S(C)(=O)=O)C(c3cccs3)C2)c1 (stereo not drawn)
    1.3 | 16.0 | 6579 | -3.5 | 0.6 | 5.8 | -5.6
41: O=C(CC1S/C(=N/N=C/c2ccco2)NC1=O)Nc1cccc(Cl)c1Cl (stereo not drawn)
    x | x | 2054 | -0.5 | x | x | -5.9
42: COc1ccc(CN2CCN(Cc3ccc(C(F)(F)F)cc3)CC2)cc1
    0.8 | 5.6 | 4129 | -6.4 | 5.6 | -4.4 | -16.1
43: CCOc1ccc(S(=O)(=O)Nc2ccccc2SC)cc1
    -18.2 | 13.4 | 24042* | x | -0.1 | 6.9 | 7.1
44: Cn1nnnc1SCc1nc2ccccc2s1
    -3.2 | x | 2956 | -3.1 | x | 5.8 | -23.7
45: Cc1nnc(-c2cnn(-c3ccccc3)c2N)n1Cc1ccc(F)cc1
    -6.3 | 6.7 | 19393* | -2.3 | 5.6 | 5.6 | -26.0
46: COc1ccc(C=NNC(=O)c2cccc(Br)c2)cc1COc1ccccn1
    14.5 | -0.5 | x | x | 7.1 | 1.3 | x
47: Cc1c(C(=O)NC2CCCCC2)sc2ncnc(N3CCN(c4ccccc4)CC3)c12
    -4.7 | 3.4 | 5704 | 11.2 | 13.7 | -0.3 | -20.3
48: COc1ccc(CCn2c(=O)[nH]c3cc(C(=O)N4CCN(c5ccccc5)CC4)ccc3c2=O)cc1OC
    2.0 | 1.5 | 4131 | 2.5 | -3.9 | 0.9 | -25.7
49: CC(C)(C)n1nnnc1C(c1ccncc1)N1CCCCCC1 (stereo not drawn)
    -1.4 | 8.8 | 5847 | -7.2 | 12.3 | 8.6 | -11.0
50: COc1ccc(C)cc1-n1c(-c2ccncc2)n[nH]c1=S
    0.3 | 6.0 | 3547 | -2.6 | 7.9 | 4.3 | -16.0
51: Cn1cc([N+](=O)[O-])c(C(=O)NNC(=O)c2ccc([N+](=O)[O-])cc2)n1
    7.4 | 5.5 | 4569 | 5.8 | -5.6 | 6.4 | 12.4
52: Cc1ccc(CSc2nsc(C)c2C#N)cc1
    70.6 | -2.8 | 4095 | -10.4 | 12.5 | 9.6 | -25.1
53: CC1CCCCC1NC(=O)CSC1=Nc2ccccc2C2CC=NN12 (stereo not drawn)
    -5.7 | 1.9 | 7506 | x | 1.8 | 5.0 | -1.8
54: CCOC(=O)c1cnc(SCC(=O)Nc2ccc(N3CCOCC3)c(Cl)c2)nc1N
    6.8 | 0.1 | 11068 | 0.9 | 2.4 | -0.4 | -33.2
55: COc1ccc(-c2cnc(N)n2C)cc1
    -4.4 | 6.3 | 3688 | 3.0 | -4.1 | 4.0 | -15.3
56: COc1ccc(C2CC(=O)C=C(c3cccc(CO)c3)C2)cc1OC (stereo not drawn)
    1.3 | 11.2 | x | x | 3.8 | 8.7 | x
57: Cc1nn2c(c1-c1ccccc1)N=C(c1ccco1)CC2c1ccccc1 (stereo not drawn)
    -4.4 | 10.7 | 9078 | -14.3 | 7.8 | -5.6 | -13.8
58: O=C(Nc1cccn2ncnc12)c1cccc(C(F)(F)F)c1
    8.5 | -3.4 | 4787 | 3.4 | 6.2 | -0.2 | -30.2
59: O=C(NN=Cc1ccc(O)c(O)c1O)/C(=C/c1ccc([N+](=O)[O-])cc1)NC(=O)c1ccccc1
    -12.0 | -5.5 | x | x | 12.5 | 19.6 | x
60: O=C(Cn1nnc(-c2ccccc2)n1)Nc1cccc(S(=O)(=O)N2CCCC2)c1
    6.7 | 9.8 | 5574 | -3.8 | 0.2 | -4.5 | -17.7
61: COc1cccc(-n2nnnc2SCC(=O)Nc2nc3c(s2)CCCC3)c1
    0.7 | 0.5 | 2460 | 7.1 | 6.5 | -5.7 | 1.8
62: N#Cc1cc2c(nc1SCC(=O)O)CCCC2
    1.1 | -1.5 | 3913 | -4.3 | -9.4 | -0.8 | -2.2
63: CCOC(=O)C(=NC1CCCCC1)NNc1cccc(C(F)(F)F)c1
    10.5 | 8.4 | 1950 | 6.8 | 4.8 | -0.2 | -27.3
64: CN(CC(=O)Nc1cccc(F)c1)C(=O)CN1C(=O)C2CCCCC2C1=O (stereo not drawn)
    5.4 | 4.4 | 3543 | x | 1.1 | 4.6 | -17.5
65: NC(=O)c1ccccc1N/C=C/C(=O)c1ccc(F)cc1
    x | x | 2835 | -8.6 | x | x | -70.5
66: COc1cccc(OCCn2cccc2/C=C2/C(=N)N3OC(C)=CC3=NC2=O)c1
    -8.6 | -3.3 | 2694 | 0.6 | 2.5 | -3.3 | -7.6
67: Cc1cc(OCCn2ccnc2)ccc1C(C)C
    -3.8 | 3.3 | 2016 | 5.3 | 10.4 | 11.6 | -8.7
